# Assay outcomes as filed in PubChem BioAssay.
# CtBP-E1A blk = blocks the CtBP interaction with E1A | AID 651724 | 340,000 compounds, 0.49% hits | activity change, % (no concentration beside the values) | AlphaScreen GST-E1A/His-CtBP binding, 1536-well; stronger effect = lower value; control for the full effect not named in the record; in the data active means activity change below about -65%; inconclusive means about -30% to -65%; inactive means above about -30%; further: on the % scale 0 is the no-effect control and ±100 the full control effect
#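 AlphaScreen with 125 nM GST-E1A and 125 nM His-CtBP (5X stocks) in Tris pH 8.0, 300 mM NaCl, BSA, Tween 20, TCEP. Compounds preincubated 2 h at 37 deg C, then glutathione donor/nickel acceptor beads added for 1 h at 37 deg C in dark.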
# Six1-Eya2 inh = Six1/Eya2 interaction inhibition; 360,000 compounds, 0.56% hits; activity change, % (concentration not given with the values); AlphaScreen GST-Six1/His-Eya2 binding, biochemical; stronger effect = lower value; control for the full effect not named in the record; Q15475+O00167; in the data active = activity change below about -65%; inconclusive = about -30% to -65%; inactive = above about -30%; further: on the % scale 0 is the no-effect control and ±100 the full control effect
# Target sequence (O00167 whole entry, looked up): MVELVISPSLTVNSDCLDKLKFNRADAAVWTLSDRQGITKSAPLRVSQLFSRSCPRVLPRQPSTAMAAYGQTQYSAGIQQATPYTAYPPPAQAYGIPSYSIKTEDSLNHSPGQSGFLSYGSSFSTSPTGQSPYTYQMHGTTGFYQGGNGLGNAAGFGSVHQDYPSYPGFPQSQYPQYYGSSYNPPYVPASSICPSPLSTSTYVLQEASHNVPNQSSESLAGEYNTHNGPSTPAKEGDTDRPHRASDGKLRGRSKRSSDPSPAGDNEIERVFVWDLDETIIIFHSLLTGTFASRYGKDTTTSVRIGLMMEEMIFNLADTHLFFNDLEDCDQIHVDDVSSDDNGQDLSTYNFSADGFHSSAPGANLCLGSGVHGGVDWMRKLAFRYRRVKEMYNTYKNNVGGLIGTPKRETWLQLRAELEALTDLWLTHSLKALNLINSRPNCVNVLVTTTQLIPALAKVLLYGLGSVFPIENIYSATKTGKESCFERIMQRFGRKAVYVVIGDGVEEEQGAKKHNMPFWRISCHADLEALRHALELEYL
# Target sequence (Q15475 whole entry, looked up): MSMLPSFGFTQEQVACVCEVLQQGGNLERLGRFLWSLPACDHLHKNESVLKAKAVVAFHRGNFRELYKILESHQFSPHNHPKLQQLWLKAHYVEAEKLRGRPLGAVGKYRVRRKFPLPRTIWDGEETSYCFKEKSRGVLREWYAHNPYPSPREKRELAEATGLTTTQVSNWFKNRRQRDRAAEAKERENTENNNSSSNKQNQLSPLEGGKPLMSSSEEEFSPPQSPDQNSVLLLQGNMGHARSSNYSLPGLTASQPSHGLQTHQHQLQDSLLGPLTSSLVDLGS
#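 Homogeneous AlphaScreen proximity assay pairing GST-Six1 with His-tagged Eya2 (added as 5X mix: 250 nM and 500 nM) in 50 mM Tris pH 8.0, 300 mM NaCl, 1 mM TCEP. Glutathione donor and nickel acceptor beads; 1 h, 37 °C, dark.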
# gsp antag = gsp mutant antagonism; gsp-mutant cells, cAMP HTRF, 30 min; control for the full effect not named in the record; Potency, µM (doses to about 76.9 µM), for the others: at the highest dose activity change, negative = inhibition, hits mostly inhibitors; 340,000 compounds, 0.4% hits; AID 624288; active = falling curve of any shape with a large fitted effect; inconclusive = falling curve, mostly with a smaller effect; inactive = flat or rising curve; cell line not stated here;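 further: intracellular cAMP measured with PDE inhibitor Ro 20-1724 present during compound exposure; potency means the concentration at half of the fitted maximal effect; on the % scale 0 is the no-effect control and ±100 the full control effect; nearly all actives have a fitted effect of over 65% in size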
#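 HTRF cAMP read-out (cAMP-d2 plus anti-cAMP antibody-K in lysis buffer, 30 min RT). Before lysis, cells are exposed to compounds with […] for 30 min at 37C in DPBS containing Ca/Mg, BSA and Tween 20.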
# gsp agonist = activates gsp, the McCune-Albright syndrome mutation; Potency, µM (titrated, usually from 76.9 µM), without a hit: top-dose activation (cAMP increase), usual class: activators; gsp mutant cells, cAMP HTRF, 30 min; control for the full effect not named in the record; AID 624287; 340,000 compounds, 0.13% hits; active = well fitted activation curve with a large enough effect; inconclusive = small, poorly fitted or top-dose-only effect, or another doubt; inactive = no such curve, though single readings can be large or run the other way; cell line not stated here;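 further: phosphodiesterase inhibitor Ro 20-1724 added with compounds to block cAMP breakdown; potency means the concentration at half of the fitted maximal effect; nearly all actives have a fitted effect of over 60% in size; about a fifth of the inactives were tested at one dose only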
#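 Cells in DMEM/10% FBS with G418 were pretreated with compounds in DMSO plus […] (300 uM stock) for 30 min at 37C. cAMP was measured by HTRF (cAMP-d2 plus anti-cAMP antibody-K) after 30 min at room temperature.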
# D2 ag = human D2 receptor agonism in beta-arrestin assay; P14416; DiscoveRx PathHunter D2 beta-arrestin, luminescence, 90 min; 100% = 57 uM dopamine signal; activation, % (test concentration not listed); 360,000 compounds, 0.084% hits; in the data active = activation above about 40%; inconclusive = about 15% to 40%; inactive = below about 15%; further: compound concentration not given in the record; the text of the record calls up to 30% inactive
#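 DiscoveRx PathHunter D2 beta-arrestin cells (2,100/well) attached overnight, then compound-stimulated 90 min at 37 C in HBSS/10 mM HEPES/0.1% Tween-20 buffer; beta-galactosidase complementation read by luminescence after 1 h at ambient temperature. Dopamine 57 uM final (EC100) as control.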
# D2 PAM = positive allosteric modulators of human D2 dopamine receptor | AID 624464 | DiscoveRx D2 beta-arrestin cells, luminescence, 90 min; 100% = 57 uM dopamine signal | P14416 | 360,000 compounds, 0.23% hits | potentiation, % (no concentration beside the values); active = potentiation of 50% or more; inconclusive = 30% to 50%; inactive = 30% or less;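 further: compound concentration not given in the record; tested on top of an EC20 dose of dopamine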
#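 PathHunter D2 cells, attached overnight at 37 deg C, received compound in DMSO plus dopamine at EC20 (50 nM final) for 90 min at 37 deg C. Beta-arrestin recruitment was read as luminescence after 1 h with detection reagent at ambient temperature.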
# Numbers without * were called inactive; ? = inconclusive; . = not tested or not shown; [ ] = another dose, or the depositor's remark.
# Labels used below: A = CtBP-E1A blk; B = Six1-Eya2 inh; C = gsp antag; D = gsp agonist; E = D2 ag; F = D2 PAM
COc1cccc(CNC(=O)c2nnn(CC(=O)Nc3ccc4c(c3)OCO4)c2N)c1
  A: .; B: 2; C: 0%; D: -27%; E: -6.3; F: -9

Cc1cc([N+](=O)[O-])ccc1NC(=O)C(C)NC1CCCCC1 (configuration not stated)
  A: 0; B: -1; C: -2%; D: -6%; E: 2.5; F: -20

Cc1cc(NC(=O)CSCC(=O)OCC(=O)c2ccc(Br)cc2)no1
  A: -1; B: 3; C: .; D: -19%; E: -5.0; F: -25

Cc1csc(NC(=O)C2CCCN(S(=O)(=O)c3ccc(Br)s3)C2)n1 (configuration not stated)
  A: -8; B: -7; C: -10%; D: -39%[inhibitor]; E: -0.9; F: -21

COc1ccc(-c2cc(-c3ccccc3)nc(SC(C)C(=O)O)c2C#N)cc1 (configuration not stated)
  A: 3; B: 4; C: ?; D: 3%[15.4 µM]; E: 1.6; F: 0

O=C1OC2C(O)COC23OC(O)CCC13O (configuration not stated)
  A: -4; B: -1; C: .; D: .; E: -4.7; F: -5

Cc1ccc(/C=C/S(=O)(=O)N2CCC(C(=O)O)CC2)cc1
  A: -7; B: 4; C: -1%; D: 0%; E: -0.5; F: -3

CC(C)n1c(O)c(N=Nc2ccc(Cl)nn2)c2ccccc21
  A: -1; B: -3; C: -10%; D: -11%; E: -5.6; F: -11

COc1ccc(NC(C)=O)cc1NC(C)C(=O)Nc1cccc(S(=O)(=O)N2CCOCC2)c1 (configuration not stated)
  A: .; B: -8; C: -2%; D: 1%; E: -2.6; F: 1

O=C(NCC1CCCO1)C1CCCN1C(=O)Nc1ccccc1[N+](=O)[O-] (configuration not stated)
  A: 7; B: -1; C: 11%; D: ?; E: 2.6; F: -4

COc1cc(C=NNC(=O)c2ccc(NS(=O)(=O)c3cccs3)cc2)cc(Br)c1O
  A: -21; B: ?; C: ?; D: 12%; E: -1.9; F: 0

CSc1cccc(N=C2C(=O)Nc3ccccc32)c1
  A: -6; B: 6; C: 12%; D: -54%[inhibitor]; E: -12; F: -10

COc1ccc(/C=C2\SC(=O)N(CCC(=O)N3CCCCC3CCO)C2=O)cc1 (configuration not stated)
  A: -1; B: -5; C: -3%; D: -34%; E: 5.0; F: -3

COc1ccc(-c2nnc(SCC(=O)N3CCc4ccccc4C3)o2)cc1
  A: 5; B: 1; C: ?; D: -6%; E: -2.5; F: -4

COC(=O)c1ccc(C(=O)OC)c(NC(=S)N2CCCC(C)C2)c1 (configuration not stated)
  A: 0; B: 14; C: -1%; D: ?; E: -3.2; F: -15

Cc1cccc(C(=O)NC2CCN(CC(=O)NCc3ccccc3F)CC2)c1
  A: 0; B: 16; C: -2%; D: -23%; E: 5.5; F: -4

CCCCCC(=O)NNC1=NCC(Cc2ccccc2)S1 (configuration not stated)
  A: -12; B: 15; C: -6%; D: -8%[15.4 µM]; E: -1.6; F: 2

COc1ccc2[nH]c3c(c2c1)CCC/C3=N\N
  A: -3; B: -2; C: 13%; D: -7%[15.4 µM]; E: 0.8; F: 7

CCOC(=O)c1ccc(N=c2sc(C(=O)OC)cc(=O)n2-c2ccc(C(=O)OCC)cc2)cc1
  A: 6; B: -4; C: -17%; D: 2%; E: -6.2; F: 1

O=C(NCC(=O)N1CCCCCCC1)c1ccco1
  A: 7; B: 5; C: 10%; D: -87%[inhibitor]; E: -1.6; F: -3

Cc1ccc(C(=O)Nc2cccc(O)c2)cc1S(=O)(=O)N1CCCCCC1
  A: -13; B: ?; C: -8%; D: -5%; E: 1.9; F: -3

Cc1cccc(C)c1NC(=O)C1=C(O)c2sccc2N(C)S1(=O)=O
  A: 5; B: 8; C: -2%; D: -20%; E: 6.6; F: 4

CC(=O)Nc1cccc(-n2c(=O)n(Cc3ccccc3)c(=O)c3[nH]cnc32)c1
  A: -5; B: -6; C: 13%; D: 1%; E: -7.2; F: -16

CCCC1C(C#N)=C(N)Oc2n[nH]c(C(C)(C)C)c21 (configuration not stated)
  A: 1; B: 0; C: 0%; D: 1%; E: 1.1; F: 0

COc1ccc(CN2CCC(N(CCc3ccccc3)Cc3ccccc3)CC2)c(OC)c1
  A: 7; B: -21; C: 4%; D: -4%[15.4 µM]; E: -1.2; F: -17

Cc1ccc(S(=O)(=O)N2CCOCC2)cc1C(=O)NCc1ccccn1
  A: 4; B: -1; C: 18%; D: -14%; E: 14; F: -2

CC(=O)N1CCN(c2ccccc2NC(=O)COc2cc(C)ccc2C(C)C)CC1
  A: -6; B: 1; C: ?; D: 9%; E: -3.2; F: 5

CCOCCn1ccc2c(OCC(=O)Nc3ccc(OC)cc3OC)cccc2c1=O
  A: 2; B: ?; C: -32%; D: ?; E: -3.4; F: -32

NNC(=O)c1csc(-c2cccc(C(F)(F)F)c2)n1
  A: -1; B: 3; C: 10%; D: -12%[15.4 µM]; E: 5.9; F: 5

COC(=O)c1sc(C(C)(C)C)cc1CSc1ccccc1
  A: 31; B: 34; C: -17%; D: 0%[15.4 µM]; E: -4.9; F: -9

O=C(Nc1ccc2c(c1)OCCO2)C(C1CC1)N1CCN(c2ccc(F)cc2)CC1 (configuration not stated)
  A: 2; B: -3; C: .; D: .; E: -1.0; F: -1

O=C(O)/C=C/c1ccc(S(=O)(=O)Nc2ccccc2C(=O)Nc2ccc(F)cc2)cc1
  A: -16; B: -28; C: 1%; D: 18%; E: -4.2; F: -7

CCOC(=O)c1sc(NC(=O)CCN2C(=O)c3ccccc3C2=O)c(C(=O)OCC)c1C
  A: -2; B: -2; C: 14%; D: 5%; E: -3.9; F: -6

Cc1ccsc1C(=O)N1CCCC1(C)C(=O)NCC(C)C (configuration not stated)
  A: 4; B: 8; C: .; D: .; E: -4.2; F: -13

Clc1cccc(-c2nc3nc4ccccc4nc3n2Cc2ccccc2)c1
  A: 19; B: 0; C: -11%; D: 4%[15.4 µM]; E: -1.4; F: -1

O=C(/C=C/c1cccc([N+](=O)[O-])c1)NCc1ccc2c(c1)OCO2
  A: 0; B: 9; C: 9%; D: -9%; E: -2.6; F: -10

CC(C)C(C(=O)Nc1cccnc1)N1C(=O)c2ccccc2C1=O (configuration not stated)
  A: -3; B: 5; C: 5%; D: -1%; E: -0.7; F: 0

Cc1ccc(C(=O)NC2CCN(CC(=O)Nc3ccccc3Cl)CC2)cc1
  A: 3; B: 0; C: -5%; D: 5%; E: -3.3; F: -8

CC(C)Oc1c(N2CCOCC2)c(=O)c1=O
  A: 8; B: 3; C: 8%; D: 5%; E: -2.6; F: -1

Cc1cc2nccc(-c3ccc(OCCCF)cc3)n2n1
  A: 32; B: 23; C: -8%; D: ?; E: -1.5; F: 1

COc1cccc(OC)c1OCC(O)CN1CCN(c2ccccc2F)CC1 (configuration not stated)
  A: 2; B: 19; C: -7%; D: 26%; E: ?; F: -9

COCCN(C(=S)Nc1ccc(OC)c(Cl)c1)C1CCN(C(C)C)CC1
  A: 2; B: -3; C: 11%; D: 1%[15.4 µM]; E: -1.0; F: -7

CSc1ncc(C(=O)O)c(C)n1
  A: 6; B: 6; C: 13%; D: .; E: -2.2; F: -3

Fc1ccc(CN2CCC(Cc3ccccc3)CC2)cc1F
  A: -5; B: 19; C: -1%; D: 2%; E: -0.1; F: -6

Clc1ccc(Cn2ncc3c(NCc4ccccc4)ncnc32)cc1
  A: 2; B: 2; C: 17%; D: -9%; E: 0.0; F: 12

CC1(C)Cc2cccc(OCC(=O)Nc3cccnc3)c2O1
  A: 4; B: -2; C: -8%; D: -35%[inhibitor]; E: -1.9; F: -6

O=S(=O)(c1cccc(Br)c1)N1CCN(c2ccnc3cc(Cl)ccc23)CC1
  A: -2; B: -18; C: -20%; D: 2%[15.4 µM]; E: 2.8; F: 13

CCOn1c(=O)c(-c2ccc(OC)c(OC)c2)[n+]([O-])c2ccccc21
  A: -4; B: -2; C: -4%; D: -8%; E: -1.1; F: -7

CCN(CC)S(=O)(=O)c1ccc2c(c1)nc(SC(C)C(=O)NCC1CCCO1)n2CC (configuration not stated)
  A: -6; B: -1; C: -17%; D: 2%; E: -0.8; F: -14

Cc1c2cnn(-c3ccccc3)c(=O)c2c(C)n1CCCC(=O)N1CCN(c2ncccn2)CC1
  A: -7; B: -11; C: -27%; D: 2%; E: -0.2; F: 15

# Additional compounds follow.
# Labels used below: A = CtBP-E1A blk; B = Six1-Eya2 inh; C = gsp antag; D = gsp agonist; E = D2 ag; F = D2 PAM
CCOC(=O)C1CCCN(C(=S)Nc2cc(C)cc(C)c2)C1 (configuration not stated)
  A: 1; B: -2; C: 5%; D: -18%; E: 1.5; F: -12

O=C(Cc1ccccc1)N1CCC(O)(c2cccnc2)CC1
  A: 6; B: 4; C: 17%; D: 0%; E: 0.8; F: -8

S=C(NCc1ccco1)NCc1ccco1
  A: 2; B: -10; C: -2%; D: -5%; E: 0.7; F: -11

O=C(NCC1OCCc2ccccc21)c1ccc(NC(=O)c2ccc(Cl)cc2Cl)cc1 (configuration not stated)
  A: 5; B: 9; C: -3%; D: 10%; E: -5.7; F: 16

Nc1c(N(CCC2=CCCCC2)C(=O)c2ccco2)c(=O)[nH]c(=O)n1Cc1ccccc1
  A: 0; B: -6; C: 4%; D: 6%[15.4 µM]; E: -1.9; F: 13

C/C(=N\N1CCN(Cc2ccccc2Cl)CC1)c1ccc([N+](=O)[O-])cc1
  A: -19; B: -29; C: -2%; D: -7%; E: 2.2; F: -8

# Filtered by structure: the entries above with fluorine.
# Labels used below: A = CtBP-E1A blk; B = Six1-Eya2 inh; C = gsp antag; D = gsp agonist; E = D2 ag; F = D2 PAM
Cc1cccc(C(=O)NC2CCN(CC(=O)NCc3ccccc3F)CC2)c1
  A: 0; B: 16; C: -2%; D: -23%; E: 5.5; F: -4

NNC(=O)c1csc(-c2cccc(C(F)(F)F)c2)n1
  A: -1; B: 3; C: 10%; D: -12%[15.4 µM]; E: 5.9; F: 5

O=C(Nc1ccc2c(c1)OCCO2)C(C1CC1)N1CCN(c2ccc(F)cc2)CC1 (configuration not stated)
  A: 2; B: -3; C: .; D: .; E: -1.0; F: -1

O=C(O)/C=C/c1ccc(S(=O)(=O)Nc2ccccc2C(=O)Nc2ccc(F)cc2)cc1
  A: -16; B: -28; C: 1%; D: 18%; E: -4.2; F: -7

Cc1cc2nccc(-c3ccc(OCCCF)cc3)n2n1
  A: 32; B: 23; C: -8%; D: ?; E: -1.5; F: 1

COc1cccc(OC)c1OCC(O)CN1CCN(c2ccccc2F)CC1 (configuration not stated)
  A: 2; B: 19; C: -7%; D: 26%; E: ?; F: -9

Fc1ccc(CN2CCC(Cc3ccccc3)CC2)cc1F
  A: -5; B: 19; C: -1%; D: 2%; E: -0.1; F: -6

# Compounds as they come. About 1.4% of those tested had a hit in this group.
